Mtb bLac sens – beta-lactam sensitization of Mtb H37Rv; AID 434955; inhibition, % at 25 µM; 330,000 compounds, 0.27% hits; M. tuberculosis H37Rv growth with meropenem, percent inhibition; hits of this screen are not shown here;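 active means about 74% or more and at least 40 points above the plate without the antibiotic, then above 30% in a dose series; inconclusive means first-round hits that could not be retested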;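 further: growth measured after seven days incubation then overnight dye step; 0% = bacteria only wells and 100% = bacteria with antibiotic; twin plates without the antibiotic show which effects depend on it; some results filed as inactive read as strong as hits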
Arbovirus inh – antivirals against arbovirus infection; arbovirus infection cell-based antiviral screen; inhibition, % at 10 µM; 200,000 compounds, 0.37% hits; AID 1251;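 active means inhibition from about 30%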;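 further: bluetongue infection of BSR cells; cell survival read as ATP light after 72 h; 0% = infected wells without compound and 100% = uninfected wells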
RecA intein inh – inhibitors of M. tuberculosis RecA intein splicing. 290,000 compounds, 0.75% hits. P9WHJ3. AID 2221. cell-free RecA intein splicing, fluorescence. inhibition, %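 (about 9 µM by stock and volumes)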; in the data active means inhibition above about 30%; inconclusive means no clear call, values can overlap the other calls;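 further: 0% = vehicle wells and 100% = reference inhibitor control wells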
Target sequence (P9WHJ3 whole entry, looked up): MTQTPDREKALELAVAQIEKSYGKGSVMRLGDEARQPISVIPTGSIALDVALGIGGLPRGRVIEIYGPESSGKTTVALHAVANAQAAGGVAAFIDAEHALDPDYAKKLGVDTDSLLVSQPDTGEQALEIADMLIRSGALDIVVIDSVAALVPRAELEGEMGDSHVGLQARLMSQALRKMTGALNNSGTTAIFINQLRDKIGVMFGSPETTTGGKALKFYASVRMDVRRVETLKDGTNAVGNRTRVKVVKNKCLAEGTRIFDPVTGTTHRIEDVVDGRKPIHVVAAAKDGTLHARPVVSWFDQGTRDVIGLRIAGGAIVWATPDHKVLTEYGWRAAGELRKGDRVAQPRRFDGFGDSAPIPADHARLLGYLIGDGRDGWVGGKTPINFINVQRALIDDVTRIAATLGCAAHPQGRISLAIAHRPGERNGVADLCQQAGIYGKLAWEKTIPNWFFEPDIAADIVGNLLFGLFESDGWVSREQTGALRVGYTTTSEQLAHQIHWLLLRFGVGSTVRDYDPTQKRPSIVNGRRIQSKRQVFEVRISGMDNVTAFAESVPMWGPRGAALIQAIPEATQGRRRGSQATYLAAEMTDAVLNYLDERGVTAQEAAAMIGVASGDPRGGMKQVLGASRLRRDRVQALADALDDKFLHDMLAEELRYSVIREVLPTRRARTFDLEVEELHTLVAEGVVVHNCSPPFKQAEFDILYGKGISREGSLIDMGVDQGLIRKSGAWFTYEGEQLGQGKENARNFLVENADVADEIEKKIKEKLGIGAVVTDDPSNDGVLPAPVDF
Mtb growth – M. tuberculosis H37Rv growth inhibitors, H37Rv strain (AID 1626); 220,000 compounds, 0.95% hits; M. tuberculosis H37Rv growth inhibition; higher % means a stronger effect; inhibition, % at 10 µM; hits with a dose series show IC50 in µM;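 active means confirmed in a dose series; inconclusive means inhibition above 80% but not taken into the dose series; inactive means below 80% or under 30% at every dose of the series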;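 further: bacteria incubated seven days before Alamar blue readout; 0% = bacteria only wells and 100% = bacteria with antibiotic wells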
YopH inh – blocks Yersinia enterocolitica YopH tyrosine phosphatase. fluorescence Ex485/Em525. inhibition, %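 (about 10 µM by stock and volumes)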. 140,000 compounds, 0.16% hits. AID 898;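 active means inhibition of 50% or more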;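 further: controls were vehicle for no effect and minimum signal wells for full effect; inactives centre near -20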
Arbovirus inh repeat – further read-out of Arbovirus inh, marked with its call; inhibition, %; measured here: 10K subset replicate screen; many hits read low in the repeat;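 first of two repeat runs on a subset; 0% = infected and 100% = uninfected wells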
The depositor's hits bear a star; ? = inconclusive; nt = not tested or not shown.

SMILES | Mtb bLac sens | Arbovirus inh | RecA intein inh | Mtb growth | YopH inh | others
O=C(C1CC1c1ccccc1)N1CCN(c2cccc(Cl)c2)CC1 (stereo not drawn) | nt | -24 | nt | 0% | -7
COC(=O)/C=C/c1oc2ccccc2c1C | -10 | 1 | 0.4 | 0% | nt
Cc1cnc(C(=O)Nc2ccc(N3CCN(C(=O)OC(C)(C)C)CC3)cc2)cn1 | -3 | -23 | -2.0 | 9% | 6
CSC1=NCCN1C(=O)c1c(F)cccc1Cl | -8 | 6 | 2.3 | 1% | 10
COC(=O)Nc1cc(C)n(-c2ccccc2)n1 | -5 | nt | nt | -12% | nt
O=C(c1coc(=O)c2ccccc12)N1CCN(Cc2ccccc2)CC1 | 34 | 9 | -1.8 | nt | -20
COc1ccc(C(=O)C2CCCN(C3Cc4ccccc4C3)C2)cc1OC (stereo not drawn) | -2 | -16 | 1.9 | 2% | nt
O=c1c2c(-c3ccc(Cl)cc3)csc2ncn1/N=C/c1cccc([N+](=O)[O-])c1O | 1 | -8 | 4.7 | 0% | nt
CCN(CC)S(=O)(=O)c1ccc(-c2nnc(SCC(=O)Nc3ccc4c(c3)OCO4)o2)cc1 | 0 | -30 | 0.4 | -6% | -20
O=C(NC(=S)N1CCCc2ccccc21)c1ccco1 | -1 | -2 | 1.0 | 4% | nt
Cc1nonc1C1CCCN1Cc1cn[nH]c1-c1ccc2c(c1)OCO2 (stereo not drawn) | -11 | 3 | 1.8 | 2% | nt
C/C(=N\NC(=O)c1ccc(O)cc1)c1ccc(NC(=O)Cc2ccccc2)cc1 | -6 | nt | -1.7 | nt | nt
CC(C)OCCCn1c(SC(C)C(=O)NC2CC2)nc2ccccc2c1=O (stereo not drawn) | -8 | nt | -4.3 | nt | nt
O=C(c1cn(-c2ccccc2)nc1-c1ccncc1)N1CCCCC1 | -3 | -1 | -0.9 | -7% | -12
CC1CCN(CCc2nc3ccccc3[nH]2)CC1 | -7 | nt | -2.1 | nt | nt

A run of entries of the results above:
SMILES | Mtb bLac sens | Arbovirus inh | RecA intein inh | Mtb growth | YopH inh | others
O=C(C1CC1c1ccccc1)N1CCN(c2cccc(Cl)c2)CC1 (stereo not drawn) | nt | -24 | nt | 0% | -7
COC(=O)/C=C/c1oc2ccccc2c1C | -10 | 1 | 0.4 | 0% | nt

Later entries:
SMILES | Mtb bLac sens | Arbovirus inh | RecA intein inh | Mtb growth | YopH inh | others
Cc1ccc(CNC(=O)c2cc3c(s2)CN(Cc2ccccc2)C3)cc1 | 0 | 1 | 5.3 | -2% | nt
O=C(Nc1nccs1)c1ccc(S(=O)(=O)N2CCCCC2)cc1 | 0 | 5 | 0.4 | -14% | -51 | Arbovirus inh repeat=6
Cc1oc(-c2cccc3ccccc23)nc1CN1CCN(c2ncnc3ccccc23)CC1 | 83 | -25 | 15 | 0% | nt
Cc1ccc(S(=O)(=O)NCCc2cc3ccc(C)c(C)c3[nH]c2=O)cc1 | -1 | nt | 0.6 | nt | nt
COc1ccc(C(=O)Nc2nc(C)c(C(=O)N(C)C)s2)cc1OC | -2 | 4 | 1.2 | -4% | 14
COc1ccc(CCNS(=O)(=O)CCNC(=O)c2ccc3c(c2)OCO3)cc1 | -1 | nt | 4.0 | nt | nt
O=C(c1ccccc1)c1c[nH]cc1-c1ccccc1 | 9 | -7 | 0.3 | 0% | -13
O=C(COC(=O)c1ccc2c(=O)n3c(nc2c1)CCC3)NC1CCS(=O)(=O)C1 (stereo not drawn) | 3 | 3 | -3.9 | 3% | nt
CCOC(=O)Cc1[nH]nc2c1C(C1C=CCCC1)C(C#N)=C(N)O2 (stereo not drawn) | -5 | -8 | 3.3 | -8% | -7
CC1Cc2c([nH]c3ccccc23)C(=O)N1 (stereo not drawn) | 2 | nt | 0.8 | nt | nt
COc1ccc(OCCSc2nnc3sc4ccccc4n23)cc1 | -2 | -7 | 4.2 | 11% | -51
O=C(CSc1nnc2ccc(-c3ccccc3)nn12)NCC1CCCO1 (stereo not drawn) | -10 | 7 | -10 | -2% | nt
COC(=O)c1cc(C(=O)CC(C)C)c[nH]1 | -1 | -2 | 1.6 | -1% | nt
COc1cccc(NC(=O)C2CCCO2)c1 (stereo not drawn) | -3 | nt | 0.7 | nt | nt
CCOC(=O)CCCNc1ccc([N+](=O)[O-])cc1[N+](=O)[O-] | 5 | 5 | 0.0 | 0% | -44
CCn1cc(-c2ccnc3cc(C(=O)O)nn23)c(C)n1 | -1 | 0 | -12 | 5% | nt
CCC1Oc2ccccc2N(CC(=O)NCCc2ccc(OC)c(OC)c2)C1=O (stereo not drawn) | -2 | 0 | -0.8 | -7% | -33
Cc1ccccc1C(=O)N1CCN(c2ccc([N+](=O)[O-])c(NCc3ccco3)c2)CC1 | -10 | 18 | -1.5 | 5% | 0
COc1cc(CN2CCNC(=O)C2CC(=O)N2CCCCO2)cc(OC)c1 (stereo not drawn) | -10 | -2 | 1.3 | -1% | nt
O=C(Nc1cccc(Cl)c1)N1CCN(Cc2ccccc2)CC1 | -11 | -14 | 1.8 | -1% | -16 | Arbovirus inh repeat=-11
CCCNC(=O)c1ccc2c(c1)S(=O)(=O)c1ccccc1C2=O | -8 | nt | -9.3 | nt | nt
CC(C)n1c(-c2ccco2)csc1=Nc1cccnc1 | 20 | -15 | 4.1 | 2% | -24
O=C(NCC1CCCO1)C1CCN(S(=O)(=O)c2cc(Cl)ccc2Cl)CC1 (stereo not drawn) | -8 | nt | 1.3 | nt | nt
Cc1onc(-c2ccccc2Cl)c1C(=O)N1CCC(Cc2ccccc2)CC1 | -9 | nt | 10 | nt | nt
CC(C)CCN1CCN(Cc2ccc(C#CC(C)(C)O)s2)CC1CCO (stereo not drawn) | 3 | -9 | 0.9 | 10% | nt
COc1cc(OC)cc(C(=O)NCc2cccnc2)c1 | 7 | -6 | nt | 1% | -8
Cc1ccc(S(=O)(=O)NCc2ccncc2)cc1 | 1 | 14 | -0.2 | -7% | -37
N#C/C(=C(\O)Cc1ccccc1)c1nc2ccccc2[nH]1 | -6 | -10 | 0.1 | -7% | -10
CC(=O)c1cc2c(cc1NS(=O)(=O)c1ccc3c(c1)OCCO3)OCO2 | 7 | -4 | -0.2 | -8% | -49
Cc1nccn1CC(O)COC1CCCCC1 (stereo not drawn) | -15 | 6 | 1.2 | 5% | 0

Pulled by compound from above, two records:
SMILES | Mtb bLac sens | Arbovirus inh | RecA intein inh | Mtb growth | YopH inh | others
O=C(Nc1cccc(Cl)c1)N1CCN(Cc2ccccc2)CC1 | -11 | -14 | 1.8 | -1% | -16 | Arbovirus inh repeat=-11
Cc1ccccc1C(=O)N1CCN(c2ccc([N+](=O)[O-])c(NCc3ccco3)c2)CC1 | -10 | 18 | -1.5 | 5% | 0

Other structures.
SMILES | Mtb bLac sens | Arbovirus inh | RecA intein inh | Mtb growth | YopH inh | others
COc1cc(C(=O)NCCC(=O)NC2CCC(C)CC2)cc(OC)c1OC (stereo not drawn) | -1 | nt | -0.5 | nt | nt
Cc1c(C=O)n(C)n(-c2ccccc2)c1=O | -3 | 3 | -0.5 | -6% | nt
O=C(Nc1scc(-c2ccccc2)c1C(=O)O)c1ccccc1Cl | 10 | nt | -1.8 | nt | nt
COc1cccc(-c2nc(-c3ccc(NC(=O)c4ccncc4)cc3)no2)c1 | 8 | 3 | -0.8 | 8% | -2
Cc1ccccc1NC(=S)Nn1cnnc1 | -4 | nt | 1.7 | nt | nt
COc1cc(-c2nnc3sc(-c4ccncc4)nn23)cc(OC)c1OC | -1 | nt | -1.5 | nt | nt
CC1CN(C(=O)COc2ncnc3ccccc23)CC(C)O1 (stereo not drawn) | -4 | 5 | 2.4 | -8% | -115
COC(=O)c1ccc(NC(=O)c2ccc3c(c2)C(=O)N(Cc2cccnc2)C3=O)cc1 | 8 | nt | -4.4 | nt | nt
Cc1ccc(C(=O)c2coc3ccc(O)c(Cl)c23)cc1 | -4 | 7 | nt | 14% | 2
O=C(NNC(=O)C1C2CCC(C2)C1C(=O)O)c1cccc(Cl)c1 (stereo not drawn) | -1 | 2 | -1.0 | 1% | nt
CCC(C)N(C)C1CCN(C(=S)Nc2cccc(SC)c2)CC1 (stereo not drawn) | 0 | -3 | 2.8 | 2% | nt
CC1(C)CC(N2CCCC2)=CC(=[N+]2CCCCCC2)C1 | -3 | 23 | 1.1 | 10% | nt
CCN1CCN(CC(=O)Nc2cccc(C)c2C)C(=O)C1=O | -4 | -3 | -0.5 | -7% | -17 | Arbovirus inh repeat=10
CC1CN(C(=O)/C=C/c2ccc(SC(F)F)cc2)CC(C)O1 (stereo not drawn) | 6 | nt | 1.1 | nt | nt
COc1cccc(C2C(C#N)=C(N)Oc3cc(C)n(Cc4ccccn4)c(=O)c32)c1OC (stereo not drawn) | -9 | -2 | 1.7 | 1% | -33
COc1ccc(OCCCC(=O)NNC(=O)c2ccncc2)cc1 | 98 | nt | -1.2 | nt | nt
CCC(C)[C@H](NC(=O)[C@@H]1CSC2c3ccccc3C(=O)N21)C(=O)NCC1CCCO1 (stereo partly drawn) | -3 | nt | -0.9 | nt | nt
CCOC(=O)C1(CCCc2ccccc2)CCN(Cc2cnc(C)s2)CC1 | 71 | 4 | 4.8 | 1% | nt
COc1ccc(-n2c(=O)[nH]cc(C(=O)Nc3ccc4c(c3)OCO4)c2=O)cc1OC | 3 | nt | 1.6 | nt | nt
Cc1cc2nc(CCl)cc(=O)n2[nH]1 | 4 | 8 | 1.4 | 3% | nt
N#CC(=C=[N-])c1nc2ccccc2nc1-[n+]1cccc(NC(=O)c2cccs2)c1 | 2 | nt | 7.5 | -4% | nt
CC(=O)C(/C=N/c1cc(-c2ccc(C)cc2)nn1-c1ccccc1)=C(\C)O | 3 | 2 | -3.1 | 4% | -25
Cc1c(C)n(C)c2ccc(C(=O)Nc3cccc4ccccc34)cc12 | 70 | -13 | 4.3 | 6% | -13
CC(C)CCN1C(=O)c2ccc(C(=O)Nc3c[nH]c(=O)[nH]c3=O)cc2C1=O | -3 | 2 | 0.1 | -5% | nt
Cc1ccc(N2C(=O)CC(N3CCN(C)CC3)C2=O)cc1 (stereo not drawn) | nt | -4 | -1.1 | 0% | -67
COc1ccc(-c2nnn(CC(=O)OC3CCCCC3)n2)cc1OC | 95 | -8 | 1.6 | 43% | -29
O=C(CSc1nc2ccccc2[nH]1)NCCCn1ccnc1 | -1 | 2 | -4.2 | -7% | 7
CCCCN=C1CC(C)(C)CC(=O)/C1=C(/O)CCCN1C(=O)c2ccccc2C1=O | -12 | -4 | -6.3 | -4% | nt
CN(C)c1cccc(C(=O)Nc2cccc(F)c2)c1 | 0 | -9 | -1.1 | -6% | -6
Brc1csc2ncccc12 | -8 | nt | nt | -10% | nt
CC(C)c1[nH]nc2c1C(c1cccnc1)C(C#N)=C(N)O2 (stereo not drawn) | -3 | -4 | 43* | 5% | -45
CC(C)n1c(N2CCN(C(=O)N3CCCCC3)CC2)nc2ccccc21 | -7 | 3 | 2.1 | -7% | -33
c1ccc(Cc2nnc3n2CCCCC3)cc1 | -12 | 5 | -3.3 | -8% | -49
CC12CCCCC1=[N+]([O-])CN2O (stereo not drawn) | -8 | 7 | -5.1 | 0% | -32
COc1ccccc1NC(=O)CSc1nc(N)c(C#N)cc1C#N | 0 | 16 | -4.5 | 2% | nt
CCc1cc2c(=O)n(C(C)C(=O)OC3CCCCC3)cnc2s1 (stereo not drawn) | 98 | -1 | -0.9 | 24% | -28
C/C(=C\C(=O)c1ccccc1)Nc1ccc2c(c1)OCO2 | 74 | -14 | 6.4 | ? | -14
O=C(CC1C(=O)NCCN1Cc1c(F)cccc1Cl)NCCCn1ccnc1 (stereo not drawn) | 4 | -2 | -1.2 | 1% | nt
COc1ccc(C(=O)C2CCCN(Cc3cccn3-c3nccs3)C2)cc1F (stereo not drawn) | -7 | -15 | -1.7 | -6% | nt
COc1ccc(C2NCCn3cccc32)cc1 (stereo not drawn) | -4 | 4 | 0.2 | 5% | -15
CN(CCC#N)C(=O)COC(=O)c1c2c(nc3ccccc13)/C(=C/c1ccco1)CC2 | -2 | -2 | -49 | 1% | -3
COc1ccc(-c2cn(Cc3ccc(C(=O)c4ccccc4)cc3)nn2)cc1 | -8 | nt | -5.0 | nt | nt
COc1ccccc1/C=C1/C(=O)N(c2ccc([N+](=O)[O-])cc2)N=C1C | -2 | nt | 0.6 | nt | nt
COc1ccc(CNC(=O)CSc2ncnc3ccccc23)cc1OC | -1 | 18 | 2.4 | 1% | nt
COc1cc(C(=O)N=c2sc3c(C)ccc(OC)c3n2C)cc(OC)c1OC | 14 | nt | -3.1 | 0% | nt
CC[C@H](C)[C@H](NC(N)=O)C(=O)NNC(=O)c1ccc(COc2cccc3cccnc23)cc1 | 2 | nt | 1.7 | nt | nt

Some of the compounds tested (hit frequency here may not be typical).
